Screens: PubChem, several laboratories
Vif TR-FRET: HIV-1 Vif–A3G interaction blockers – biochemical, TR-FRET, GST-Vif 1-94, biotin-A3G peptide, dose response retest, primary screen (AID 1117319) | TR-FRET GST-Vif / biotin-A3G peptide binding; higher % means a stronger effect; test concentration not given here; strong numbers were not always called active | one-dose inhibition, %; IC50 in µM for titrated hits | 0.57% of 260,000 active;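 active = above the screen mean plus three standard deviations and confirmed in dose response; inconclusive = results disagree or hit not tested in dose response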;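 also: Vif residues 1-94 fused to GST binding biotinylated APOBEC3G peptide 110-148; 0% = full assay without inhibitor and 100% = GST in place of GST-Vif; retest series ran down from 100 µM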
Calb FLC: C. albicans growth modulation with fluconazole | AID 1979 | C. albicans CaCi-2 (fluconazole-resistant clinical isolate) + fluconazole, Alamar Blue growth, 48 h | growth inhibition, % (concentration not given with the values) | 0.57% of 300,000 active;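 active = most replicates above 75%; inconclusive = exactly half above 75%; inactive = most below 75%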;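 also: all wells also contain fluconazole at 8 µg/ml as a sub-toxic cotreatment; 0% = median of DMSO wells and 100% = median of geldanamycin control wells; wells of about 8 µL received 7.5 nL stock; the first replicate is given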
RanGTP-Impb inh: disruptors of Ran-importin-beta complex formation – biochemical, FRET, CFP-Ran, YFP-importin-beta, homogeneous, primary screen; cell-free CFP-Ran/YFP-importin-beta FRET ratio; inhibition, % (test concentration not listed); 1.1% of 300,000 active; AID 2216;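 active = most replicates above 15%; inconclusive = exactly half above 15%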;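 also: 0% = DMSO wells and 100% = Ran loaded with GDP instead of GTP; wells of about 40 µL received 100 nL stock; the first replicate is given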
LANA-H2A inh: blocks KSHV LANA binding to histone H2A/H2B; Q9QR71; cell-free LANA-H2A/H2B peptide, fluorescence polarization; inhibition, % (no concentration beside the values); 0.6% of 320,000 active; AID 2629; in the data active = inhibition mostly above about 10%, no sharp cut-off; inactive = mostly below about 6.7%;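 also: stock transfer was 7.5 nL into about 10 µL; 0% = median of vehicle wells and 100% = median of positive control wells; one replicate is shown; the record names a cut of 25% in any replicate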
HNF4A DNA FP: change in binding of human HNF4 alpha to DNA | HNF4a-FITC DNA binding, fluorescence polarization, 1 h | activity change, % at 10 µM | 0.3% of 360,000 active | AID 1224865; in the data active = activity change above about 30%, passing the limit was not always enough;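 also: controls were the assay level and a saturating level of protein; the project sought stronger binding though the title names inhibitors; some compounds called inactive have numbers as strong as hits; positive values seem to mean higher polarization but the record does not say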
Target sequence (P41235 whole entry, looked up): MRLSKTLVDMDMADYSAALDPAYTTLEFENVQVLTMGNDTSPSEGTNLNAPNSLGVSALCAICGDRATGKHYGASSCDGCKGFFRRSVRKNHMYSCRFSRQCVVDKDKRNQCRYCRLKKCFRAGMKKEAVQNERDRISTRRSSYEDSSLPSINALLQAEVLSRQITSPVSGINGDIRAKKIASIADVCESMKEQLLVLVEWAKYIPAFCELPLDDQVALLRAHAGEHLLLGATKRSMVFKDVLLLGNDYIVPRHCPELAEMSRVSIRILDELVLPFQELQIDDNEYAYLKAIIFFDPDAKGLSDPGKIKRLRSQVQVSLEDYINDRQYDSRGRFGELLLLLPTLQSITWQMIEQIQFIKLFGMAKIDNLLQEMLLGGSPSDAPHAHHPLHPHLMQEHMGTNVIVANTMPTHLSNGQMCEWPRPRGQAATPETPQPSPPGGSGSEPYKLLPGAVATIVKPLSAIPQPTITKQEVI
B2AR ag: human beta-2 adrenergic receptor agonism by FAP; P07550; Am2.2-beta2AR cells, FAP receptor internalization, flow cytometry; reference of the scale not given here; response, % (concentration not given with the values); 0.43% of 340,000 active; AID 504454;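 active = response above a set limit, near 3 SD of response in nonfluorescent compounds, cut at about 42% in these data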;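 also: stock transfer was 100 nL into about 11 µL; a reference agonist was the positive control; negative values mostly stem from fluorescent compounds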
Target sequence (P07550 whole entry, looked up): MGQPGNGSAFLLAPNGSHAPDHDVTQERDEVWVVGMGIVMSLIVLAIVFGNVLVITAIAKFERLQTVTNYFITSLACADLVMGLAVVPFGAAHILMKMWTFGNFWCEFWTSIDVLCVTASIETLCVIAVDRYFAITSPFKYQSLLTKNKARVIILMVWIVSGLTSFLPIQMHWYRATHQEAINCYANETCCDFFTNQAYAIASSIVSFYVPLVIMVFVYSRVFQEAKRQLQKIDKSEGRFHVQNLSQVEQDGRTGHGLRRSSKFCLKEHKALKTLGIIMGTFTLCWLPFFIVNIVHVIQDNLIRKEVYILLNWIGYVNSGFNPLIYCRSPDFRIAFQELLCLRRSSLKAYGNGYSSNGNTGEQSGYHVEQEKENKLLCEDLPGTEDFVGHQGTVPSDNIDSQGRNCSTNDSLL
ALR H2O2 inh: human ALR oxidase inhibition via reduced H2O2; inhibition, % (test concentration not listed); AID 485317; P55789; purified ALR, DTT oxidation, H2O2 HRP-luminol luminescence; 3.8% of 290,000 active;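 active = mean and each replicate at 75% or more; inconclusive = only one of the two met; inactive = neither met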;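 also: stock transfer was 7.5 nL into about 7.5 µL; 0% = neutral wells and 100% = wells with inactivated enzyme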
Target sequence (P55789 whole entry, looked up): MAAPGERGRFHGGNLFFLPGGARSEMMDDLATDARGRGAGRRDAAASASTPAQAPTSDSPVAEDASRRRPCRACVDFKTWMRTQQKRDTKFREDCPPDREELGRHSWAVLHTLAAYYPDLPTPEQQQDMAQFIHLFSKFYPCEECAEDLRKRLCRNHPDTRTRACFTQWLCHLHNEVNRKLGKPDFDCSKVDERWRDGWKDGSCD
* = called active by the depositor; ? = inconclusive; / = not tested or not shown; & = joins results of further samples.

Screens in order: Vif TR-FRET	Calb FLC	RanGTP-Impb inh	LANA-H2A inh	HNF4A DNA FP	B2AR ag	ALR H2O2 inh
[1] C#CCOCCOCCOCCNc1nc(N2CCN(C(=O)[C@H]([C@@H](C)CC)n3cc(CCCN=C(N)N)nn3)CC2)nc(N2CCN(C(=O)[C@H](C)n3cc(CCCN=C(N)N)nn3)CC2)n1
  -6.0%	-5.0	4.1	-3.5	/	/	-23.5
[2] O=S(=O)(Cc1cc(-c2ccccc2Cl)no1)c1ccccc1
  -11.1%	1.5	5.0	-8.9	-3.0	9.5	-2.8
[3] COc1ccc(OC)c(-c2csc(NC(=O)C3COc4ccccc4O3)n2)c1 (stereo not given)
  2.0%	2.9	?	4.1	-0.8	-1.4	-13.0
[4] CC(/C=C1\SC(=S)N(NS(=O)(=O)c2ccc(C)cc2)C1=O)=C\c1ccccc1
  -2.5%	38.9	0.2	-2.2	-17.0	5.2	4.1
[5] CC(=O)Nc1ccc(-c2cc(-c3ccc(NC(C)=O)cc3)nc(-c3ccc(NC(C)=O)cc3)n2)cc1
  -28.1%	8.1	?	7.1	-3.5	1.2	-1.6
[6] COc1ccc(NS(=O)(=O)c2ccc3c(c2)oc(=O)n3C)cc1Cl
  9.1%	10.0	0.8	-2.6	-0.5	3.4	-2.2
[7] CCCCCC(=O)N/N=C/c1ccc([N+](=O)[O-])o1
  7.5%	-9.1	9.2	-1.3	-0.4	8.8	-29.1
[8] O=c1[nH][nH]cc1C=Nc1ccc(Oc2ccccc2)cc1
  -12.8%	-18.2	-1.6	-3.2	1.1	-26.9	-26.0
[9] Cc1ccc(-c2ccc(SCC(=O)N3CCCc4ccccc43)nn2)cc1
  /	0.5	2.1	3.2	/	/	0.8
[10] CC(C)N(Cc1ccccc1)C(=O)COC(=O)c1cnc(Cl)c(Cl)c1
  -6.7%	/	/	-0.2	0.8	11.9	-1.2
[11] O=S(=O)(c1ccccc1)[C@@]1(c2ccccc2)C[C@@H]2ON=C(c3cccc(Br)c3)[C@@H]2C1
  /	-8.8	1.6	-5.8	-3.2	1.8	-0.1
[12] CC(=O)Nc1ccc2c(CSc3nnc(N)s3)cc(=O)oc2c1
  /	-1.6	2.8	1.3	2.9	-13.2	/
[13] Cc1ccc(C2=NNC(c3ccc(Cl)cc3)=Nc3ccccc32)o1
  /	-4.0	-4.8	-0.6	4.2	-2.2	-8.4
[14] Cc1ccc2[nH]c(=O)c(CN(Cc3ccco3)S(=O)(=O)c3c(C)ccc4nsnc34)cc2c1
  22.5%&1.5%	-5.5	5.7	6.2	0.8	13.1	4.2
[15] O=C(COC(=O)c1ccccc1NCCO)Nc1cc(C(F)(F)F)ccc1N1CCOCC1
  /	-1.3	-2.4	-4.5	-0.3	5.8	1.0
[16] O=C1C2CC=CCC2C(=O)N1c1ccc(NCCc2ccc(O)cc2)c([N+](=O)[O-])c1 (stereo not given)
  /	11.4	-2.1	0.4	1.0	12.9	70.5
[17] Cc1ccccc1NS(=O)(=O)c1ccc2[nH]cc(C(=O)N(C)Cc3ccco3)c(=O)c2c1
  56.8µM*	6.4	5.1	-13.9	-7.7	-0.1	4.7
[18] O=C(CNC(=O)c1ccncc1)N/N=C/c1ccccc1[N+](=O)[O-]
  1.9%	6.1	3.3	1.7	1.4	5.8	-13.1
[19] O=C(Nc1ccc2oc(-c3ccccc3F)nc2c1)c1cncc(Br)c1
  -8.6%	-2.2	2.9	0.2	-1.8	3.7	2.2
[20] Cn1c(SCc2ccc(Cl)cc2Cl)nc(C(F)(F)F)cc1=O
  ?	0.7	-0.1	-1.3	3.2	37.6	0.9
[21] COCCNC(=O)Cn1cc(/C=C(\C#N)C(=O)NC2CC2)c2ccccc21
  /	1.1	6.9	-3.1	-2.8	1.9	5.3
[22] COc1ccc(CCNC(=O)COC(=O)/C=C/c2cc(OC)c(OC)c(OC)c2)cc1OC
  7.1%	24.0	/	1.1	3.5	0.5	1.8
[23] CCc1ccc(CN2CCSCC2)cc1
  /	0.3	7.5	-1.4	-4.8	-1.9	-4.2
[24] O=[N+]([O-])c1cc(/C=N/Nc2nc(N3CCOCC3)nc(N3CCOCC3)n2)ccc1Cl
  21.8%	?	1.4	0.5	0.6	-1.1	1.6
[25] COc1ccc(S(=O)(=O)N(C)CC(=O)NCCC2=CCCCC2)cc1C
  -2.0%	1.1	0.8	6.7	-5.4	-3.5	-1.3
[26] Cc1cc(C)nc(NNC2=CC(=[N+]3CCCCC3)CC(C)(C)C2)n1
  4.7%	3.3	2.4	-3.7	0.5	11.7	98.8*
[27] Cc1cc(C)cc(NC(=O)CN(C)S(=O)(=O)c2cccc3nsnc23)c1
  2.4%	-16.4	9.9	0.2	0.6	0.4	-3.4
[28] CC(=O)N1CCN(c2ccc(NC(=O)c3ccc(Cl)cc3)cc2)CC1
  -5.3%	6.0	0.7	0.8	3.7	-5.3	2.7
[29] CCCCOC(=O)Oc1ccc2c(=O)c(Oc3cccc(C)c3)coc2c1
  0.4%	1.9	1.5	3.5	-2.6	-0.3	35.0
[30] O=C(NCCc1ccc(S(=O)(=O)N2CCCC2)cc1)c1cccs1
  5.1%	-6.4	2.2	2.7	0.1	-2.8	-0.8
[31] Cc1cc(C(=O)Nc2nc(-c3ccccn3)cs2)ccc1[N+](=O)[O-]
  3.5%	109.6*	3.7	5.3	1.9	3.9	-10.8
[32] Cc1noc(C)c1COc1cccc(C(=O)NCCc2c[nH]c3ccccc23)c1
  -8.5%	-3.0	3.4	3.0	1.1	12.0	/
[33] CCN(c1ccc(N=Cc2c(O)n(Cc3ccc(OC)cc3)c(=O)c3ccccc23)cc1)C(C)C
  5.5%	/	/	/	-47.0	-389.7	/
[34] C/C(=N\NC(=O)CNC(=O)c1cccnc1)c1cccc(O)c1
  8.4%	0.2	-2.6	-6.1	-3.2	12.5	54.9
[35] COc1cc(-c2nc(-c3cccc(C)c3)no2)cc(OC)c1OC
  /	-4.9	-1.6	8.9	1.1	6.5	4.5
[36] CCOC(=O)N1CCC(NC(=O)C2CCCN(S(C)(=O)=O)C2)CC1 (stereo not given)
  -8.1%	-11.7	2.2	-2.1	5.0	1.6	-5.1
[37] CS(=O)(=O)N(CC(=O)NCc1cccnc1)C1CCCCC1
  11.5%	-8.4	6.2	0.7	-1.6	-5.3	2.2
[38] COc1cc(/C=N/NC(N)=O)ccc1OC(=O)c1cccs1
  -1.7%	-2.9	-3.7	-0.1	1.4	5.9	27.1
[39] COc1ccc(NC(=O)C/C(C)=N/NC(=O)c2cnccn2)c(OC)c1
  /	15.4	3.0	0.4	1.5	-1.6	1.8
[40] Cn1nnnc1SCC(=O)NCCCc1ccccc1
  0.4%	-13.8	6.4	-20.3	-0.1	2.7	2.3
[41] O=C(c1c(F)c(F)c(F)c(F)c1F)N1CCc2ccccc21
  /	-3.8	-3.7	1.2	6.3	4.2	-4.3
[42] CCOc1ccccc1N1CCN(S(=O)(=O)c2cc(C)ccc2OC)CC1
  6.1%	-6.4	0.3	0.3	6.2	2.9	/
[43] C=CC[n+]1c(C)csc1Nc1ccc(C)cc1
  /	-3.0	3.2	-0.8	-0.2	-10.4	98.9*
[44] O=C(CNC(=O)c1cccnc1)N/N=C/c1ccc(O)cc1O
  13.7%	-11.9	0.3	-1.2	1.3	0.8	77.9*
[45] COc1cccc(NC(=O)N2CCc3ccccc3C2)c1
  /	-6.8	?	-3.7	-2.0	-2.4	3.1
[46] COc1cccc(-c2nc(CS(=O)(=O)CC(=O)NC3CC3)c(C)o2)c1
  35.4%	23.5	-1.9	5.9	-1.5	-6.2	-7.8
[47] CCCCN(C)C(=O)C1CCC(CNS(=O)(=O)c2ccc3c(c2)CC(C)N3C(C)=O)CC1 (stereo not given)
  -1.3%	12.1	-3.4	6.0	-0.9	-2.1	-1.4
[48] C[C@H](CO)N1C[C@H](C)[C@@H](CN(C)C)Oc2c(NC(=O)C3CC3)cccc2C1=O
  /	/	/	-3.7	-3.8	-1.7	11.2
[49] COc1ccc(CN(Cc2nc3ccccc3c(=O)[nH]2)C(=O)NC2CCCCC2)cc1
  -4.6%	8.6	4.5	4.4	-1.6	-7.5	4.0
[50] COc1ccc(-c2nn(-c3ccccc3)cc2/C=N/NC(=S)NC(C)C)cc1OC
  24.9%	?	-2.8	-1.5	1.6	-2.7	-30.6
[51] O=c1oc2cc(Cl)ccc2n1CSc1nc2ccccc2s1
  -1.4%	-7.3	-0.4	2.4	1.7	-3.0	-16.8
[52] COc1cc(NC(=O)CN2CCC(C)CC2)c(C)cc1[N+](=O)[O-]
  /	-1.2	6.0	2.5	1.4	-6.4	-13.1
[53] Cc1ccc(C(=O)NNC(=O)CSc2nnc(C(C)C)n2C)cc1
  /	3.4	5.8	1.1	0.1	-4.1	3.2
[54] COC(=O)c1ccc(Cl)cc1NC(=O)/C=C/c1ccc(C)o1
  14.6%	-7.0	0.7	0.1	-4.2	-4.6	/
[55] CCN(CC)C(=O)COc1ccc2oc(C)c(C(=O)OC(C)C)c2c1
  23.5%	16.9	3.0	1.4	-0.1	14.9	-11.6
[56] NCCOc1ccccc1Cc1ccccc1
  >100µM*	17.3	5.4	-1.6	-0.7	-13.2	-26.8
[57] COc1ccc(C(=O)COC(=O)c2c(C)noc2C)cc1Cl
  4.0%	/	/	2.8	2.9	-0.6	1.1
[58] C=C1CCN([C@H](C(=O)NCc2ccccc2)C(C)C)S(=O)(=O)c2ccccc21
  /	30.1	7.1	-0.7	2.2	-11.8	-6.2
[59] Cc1ccc(N/C(C(Cl)=C(Cl)Cl)=C(/Cl)[N+](=O)[O-])c(C)c1
  3.4%	?	/	/	-0.4	-0.6	/
[60] COc1ccc(OCCOC(=O)c2cccc(-n3cnnn3)c2)cc1
  93.6µM*	-3.8	/	0.4	-3.6	-3.8	-6.5

Carrying on.
Screens in order: Vif TR-FRET	Calb FLC	RanGTP-Impb inh	LANA-H2A inh	HNF4A DNA FP	B2AR ag	ALR H2O2 inh
[61] CCCCC#Cc1ccc(C(=O)NNC(=O)Nc2ccccc2)o1
  3.8%	-13.5	-0.6	6.4	-0.3	10.0	8.4
[62] Cc1ccc(SCC(=O)Nc2ncc(C)s2)cc1
  5.8%	-3.9	-6.8	0.6	-2.8	-2.2	-4.2
[63] Cc1ccc(C(c2nnnn2CS(=O)(=O)c2ccc(C)cc2)N2CCCC2)cc1 (stereo not given)
  -4.9%	-1.5	5.4	-9.0	4.7	-4.3	-1.6
[64] COc1ccc(C(=O)n2nc(-c3ccccc3)nc2N)cc1OC
  -0.8%&-0.6%	-7.3	-1.5	-0.3	-0.3	-0.5	1.8
[65] O=C(/C=C/c1ccccc1)C1=C(O)C(=O)N(CCO)C1c1ccccc1[N+](=O)[O-] (stereo not given)
  10.7%	-6.3	2.4	3.3	-1.2	2.9	11.0
[66] COc1ccc(C2CC(c3ccccc3Cl)Nc3ncnn32)cc1OC (stereo not given)
  20.4%	6.5	2.5	-0.9	-4.8	-8.3	-0.3
[67] COCCCNC(=O)CCC(=O)NNc1nc2ccccc2c2nc(-c3ccccc3)nn12
  ?	-0.9	4.0	3.8	1.1	-4.8	7.9
[68] O=c1[nH]c2c(s1)C(c1ccccc1)C1C3CCC(C3)C1S2 (stereo not given)
  ?	-7.6	26.1*	1.8	-2.2	-12.5	17.3
[69] CCN(c1ccc(NC(=O)COC(=O)c2ccc(C)s2)cc1)C(C)C
  13.1%	-2.7	6.1	-0.3	0.2	3.4	41.5
[70] CCn1c(-c2sc(-c3ccccc3)nc2C)n[nH]c1=S
  -3.6%	58.3	1.0	-4.1	2.9	7.7	71.9
[71] O=C(NCCN1C(=O)C2C3C=CC(C3)C2C1=O)Nc1ccccn1 (stereo not given)
  3.7%	-0.4	1.0	2.5	0.5	7.0	/
[72] CC(C)Oc1cccc(C(=O)NC(=S)Nc2cccnc2)c1
  7.7%	0.2	-2.7	-1.2	-0.1	-17.1	16.9
